Rango-impB inh – prevents formation of the Rango-importin beta complex | 0.031% of 340,000 active | Potency, µM (highest dose often 92.2 µM), for the others: top-dose inhibition of complex formation | Rango CFP/YFP FRET sensor + importin beta, 45 min; active = rising FRET ratio curve, often small or poorly fitted; inconclusive = mostly compound fluorescence or quenching in the first reads; inactive = flat curves in all reads;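 further: potency means the concentration at half of the fitted maximal effect; 0% = DMSO wells and 100% = buffer wells lacking importin beta; nearly all actives have a fitted effect of over 15% in size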
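FRET biosensor (snurportin 1 IBB flanked by EYFP and cerulean), 50 nM, with compound 5 min, then 0.125 microM importin beta in PBS, 1 mM DTT, 0.02% Tween-20, 0.1% BSA. CFP/YFP ratio read after 45 min at room temperature; pre-read flags interference.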
GLA inh pH 4.5 – blocks human alpha-galactosidase A at pH 4.5; purified enzyme, 4-MU-alpha-Gal fluorescence, pH 4.5; activity change, negative = inhibition, % at 105 µM; 230,000 tested, under 10 active; AID 1467; inconclusive = small, poorly fitted or top-dose-only inhibition, or a rising curve; inactive = flat fitted curve, though single readings scatter; no compound was filed as active;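 further: 0% = full activity with enzyme and -100% = basal without enzyme; dose as in the result columns while the protocol names 77 µM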
Target sequence (P06280 whole entry, looked up): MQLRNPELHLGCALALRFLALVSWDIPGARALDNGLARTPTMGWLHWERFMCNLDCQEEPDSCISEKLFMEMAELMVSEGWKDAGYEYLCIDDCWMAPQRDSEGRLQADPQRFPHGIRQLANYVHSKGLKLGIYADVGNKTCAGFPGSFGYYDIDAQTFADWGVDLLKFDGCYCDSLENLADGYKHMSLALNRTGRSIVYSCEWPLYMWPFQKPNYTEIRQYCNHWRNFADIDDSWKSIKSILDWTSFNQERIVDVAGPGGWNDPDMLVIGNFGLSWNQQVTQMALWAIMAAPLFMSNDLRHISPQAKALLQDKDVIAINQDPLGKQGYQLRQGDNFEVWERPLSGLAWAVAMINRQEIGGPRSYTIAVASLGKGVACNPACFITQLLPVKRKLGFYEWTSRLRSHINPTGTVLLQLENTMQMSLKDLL
miR-21 FLuc – miR-21 reporter, rising signal | HeLa miR-21 FLuc reporter, luciferase, 48 h | Potency, µM (highest dose often 38.3 µM), without a hit: top-dose reporter change, positive = more light | 340,000 tested, under 10 active | AID 2288; active = well fitted rising curve with a large enough effect; inconclusive = small, poorly fitted or top-dose-only effect; inactive = no such curve, though single readings can be large or run the other way;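 further: % of control where 0% means no effect; miR-21 action dims this reporter so a rising signal means less miR-21 action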
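HeLa cells endogenously expressing miR-21, stably carrying CMV-driven firefly luciferase with a downstream miR-21 binding site, 2000 cells/well. Titrations up to approximately 40 uM, 48 hours; luciferase luminescence read.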
Rango dissoc inh – inhibitors of RanGTP-induced Rango-importin beta complex dissociation; O95149+P62826; Biochemical FRET Rango-importin beta, RanGTP-induced dissociation; Potency, µM (highest dose often 46.1 µM), for inactives: top-dose activity change, negative = inhibition; 0.071% of 340,000 active; AID 540253; active means falling FRET ratio curve, often poorly fitted, with flat reads before Ran was added; inconclusive means other falling curves, or compound fluorescence or quenching; inactive means flat or rising ratio curve;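 further: potency means the concentration at half of the fitted maximal effect; % of control where 0% means no effect; nearly all actives have a fitted effect of over 45% in size; -100% = wells without RanGTP and RCC1; the record marks most hits as doubtful in a second field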
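Quantitative HTS using a FRET biosensor: 0.1 uM Rango, 0.25 uM importin beta, 0.6 uM Ran, 2 mM GTP, 0.2 uM RCC1 final, PBS with DTT, Tween-20 and BSA. Post-read taken 45 min after Ran addition.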
Starred values were filed as active, the others as inactive; u = inconclusive; x = not tested or not shown; & = joins results of further samples. Not all compounds are listed; count on the stated rates, not on these rows.

A first look:
Rango-impB inh	GLA inh pH 4.5	miR-21 FLuc	Rango dissoc inh	SMILES
-0.4%	-3	-8%	-6%	CCOc1ccccc1-c1nc(-c2cccc(Br)c2)no1
0.0%	11	-29%	-9%	Oc1ccc2ccccc2c1CNc1cnc2ccccc2c1
3.9%	4	20%	4%	Clc1ccc(-c2c[n+]3c(n2-c2ccccc2)SCC3)cc1
-0.2%	7	-2%	3%	Cc1ccc(C)c(NC(=O)CN(C)C(=O)Cc2ccccc2)c1
-5.4%	5	-4%	4%	CCOc1ccc(NC(=O)c2sc(NC(C)=O)c(C(=O)OC)c2C)cc1
0.2%	-2	-10%	-5%	CC(C)OC(=O)NCCOC(=O)Nc1ccccc1Cl
x	2	-31%	x	O=C1CN(CC(=O)N2CCOCC2)c2ccccc2O1
-1.9%	x	-5%	-2%	CCN1C(=O)CSC1=Nc1cccc(C(=O)O)c1
1.7%	x	-9%	7%	CCOc1ccc2nc(N(CCN(C)C)C(=O)c3ccc4c(c3)CCCC4)sc2c1
0.1%	0	5%	-3%	O=C(CSc1nc2ccccc2o1)N1CCN(C(=O)c2ccco2)CC1
-3.2%	5	-61%	6%	Cn1c(C(=O)NCC2CCCO2)cc2oc3ccccc3c21 (stereo not given)
0.9%	x	x	-1%	CN(C(=O)c1cccc(NC(=O)Cc2cccc(NC(=O)C3CCCN(C(=O)C4CCCCC4)C3)c2)c1)C1CC1 (stereo not given)

All compounds of this part, previewed entries included:
Rango-impB inh	GLA inh pH 4.5	miR-21 FLuc	Rango dissoc inh	SMILES
-0.4%	-3	-8%	-6%	CCOc1ccccc1-c1nc(-c2cccc(Br)c2)no1
0.0%	11	-29%	-9%	Oc1ccc2ccccc2c1CNc1cnc2ccccc2c1
3.9%	4	20%	4%	Clc1ccc(-c2c[n+]3c(n2-c2ccccc2)SCC3)cc1
-0.2%	7	-2%	3%	Cc1ccc(C)c(NC(=O)CN(C)C(=O)Cc2ccccc2)c1
-5.4%	5	-4%	4%	CCOc1ccc(NC(=O)c2sc(NC(C)=O)c(C(=O)OC)c2C)cc1
0.2%	-2	-10%	-5%	CC(C)OC(=O)NCCOC(=O)Nc1ccccc1Cl
x	2	-31%	x	O=C1CN(CC(=O)N2CCOCC2)c2ccccc2O1
-1.9%	x	-5%	-2%	CCN1C(=O)CSC1=Nc1cccc(C(=O)O)c1
1.7%	x	-9%	7%	CCOc1ccc2nc(N(CCN(C)C)C(=O)c3ccc4c(c3)CCCC4)sc2c1
0.1%	0	5%	-3%	O=C(CSc1nc2ccccc2o1)N1CCN(C(=O)c2ccco2)CC1
-3.2%	5	-61%	6%	Cn1c(C(=O)NCC2CCCO2)cc2oc3ccccc3c21 (stereo not given)
0.9%	x	x	-1%	CN(C(=O)c1cccc(NC(=O)Cc2cccc(NC(=O)C3CCCN(C(=O)C4CCCCC4)C3)c2)c1)C1CC1 (stereo not given)
1.6%	4	-4%	-6%	C=CCn1c(-c2ccc(Cl)cc2)cnc1SC(C)C(N)=O (stereo not given)
-6.0%	7	-13%	-4%	CC(=O)N1CCN(c2ccccc2NC(=O)COc2ccccc2C)CC1
-0.6%	x	-2%	3%	O=C(NCCCNC(=O)c1cc(Cl)ccc1Cl)c1ccco1

Carrying on:
Rango-impB inh	GLA inh pH 4.5	miR-21 FLuc	Rango dissoc inh	SMILES
3.8%	x	14%	-8%	COc1cc(-c2noc(C)c2C#Cc2ccccn2)cc(OC)c1OC
3.0%	x	x	-21%	CCOC(=O)c1sc(NC(=O)CC2OC(=O)c3ccccc32)nc1C (stereo not given)
2.9%	1	0%	-3%	CCCN1C(=O)CSC1=Nc1ccccc1
-2.2%	-10	-1%	-10%	COc1ccc(C(=O)COC(=O)CCc2nc3ccccc3[nH]c2=O)cc1Br
u	3	-31%	-5%	O=C(Nc1ccc(-c2nnc(-c3ccccc3)o2)cc1)C(F)(F)F
2.2%	-3	-2%	1%	O=C(OCCN=C1NS(=O)(=O)c2ccccc21)C1CC(=O)N(c2ccc3ccccc3c2)C1 (stereo not given)
0.0%	6	-9%	-5%	O=C(CCSCCc1ccccn1)Nc1ccc(Cl)cn1
-1.1%	0	4%	0%	COc1ccc(CN2CSC(=S)N(Cc3ccc(OC)cc3)C2)cc1
-1.0%	2	0%	-11%	CN1C(=O)NC(c2ccc(O)cc2)C2=C1CN(c1ccc(O)cc1)C2=O (stereo not given)
0.5%	-10	-25%	-3%	Cc1onc(-c2ccccc2)c1C(=O)Nc1nc2c(s1)CCCC2
1.6%	x	-13%	10%	CN1C(=O)c2ccc(NC(=O)CSc3ccccc3)cc2C1=O
-3.0%	1	-60%	u	Cn1cc(Br)c(C(=O)NNC(=O)c2ccc(Cl)cc2)n1
-0.3%	x	-1%	3%	O=C(N/N=C/c1ccc(OC(=O)c2ccccc2Br)cc1)c1ccccn1
-3.0%	x	x	0%	CN(C)S(=O)(=O)c1cccc(C(=O)N2CCN(C(=O)C3CCCO3)CC2)c1 (stereo not given)
-0.4%	x	16%	-8%	O=c1c2ccccc2[nH]c(=S)n1CCCN1CCN(c2ccccc2)CC1

Following part
Rango-impB inh	GLA inh pH 4.5	miR-21 FLuc	Rango dissoc inh	SMILES
-5.3%	0	0%	4%	COc1ccc(-n2c(SCC(=O)c3c(N)n(C)c(=O)n(C)c3=O)nc3ccccc32)cc1
1.6%	-4	-17%	-8%	CCCc1ccc(-c2ccc(C(=O)O)cc2)nc1
4.9%	3	-8%	2%	CC(C)OC(=O)CSc1nnc2c3ccccc3n(C)c2n1
2.6%	x	-2%	-2%	COCCNC(=O)C(c1ccc(C)cc1)N(CCOC)C(=O)CCC(=O)Nc1ccccn1 (stereo not given)
-1.3%	6	-2%	-1%	Cc1csc(NC(=O)CSc2nnc3ncccn23)n1
-0.1%	9	0%	1%	COC(=O)c1ccc(C2C(Oc3ccccc3)C(=O)N2CCc2ccc(OC)c(OC)c2)cc1 (stereo not given)
4.0%	10	-21%	-5%	Cn1cnnc1SCc1ccc(C(=O)N/N=C/c2cccs2)cc1
-1.8%	5	-2%	-10%	CC(C)C(C)(C#N)NC(=O)CSc1nnc(C(F)(F)F)n1C (stereo not given)
2.3%	-7	-26%	-4%	O=[N+]([O-])c1cccc(-c2csc(Nc3ccccc3)n2)c1
x	8	-5%	x	C(=N\Nc1nc(N2CCOCC2)nc(N2CCOCC2)n1)/c1ccco1
-1.6%	x	-2%	-11%	CCOc1ccc(N2CC(C(=O)NCc3ccccn3)CC2=O)cc1 (stereo not given)
-0.6%	0	-11%	9%	CCOC(=O)N1CCN(CC(=O)Nc2ccc(C)cc2)CC1
0.9%	0	4%	-11%	CC(C)CC(=O)NS(=O)(=O)c1ccc(NS(C)(=O)=O)cc1
-2.3%	9	-2%	12%	CC(=O)c1ccc(N2CCN(C(=S)Nc3ccc(Cl)c(Cl)c3)CC2)cc1
-3.9%	x	-3%	u	Cc1cccc(NC(=O)N2CCCC(CNC(=O)c3ccccc3Cl)C2)c1C (stereo not given)

Next part:
Rango-impB inh	GLA inh pH 4.5	miR-21 FLuc	Rango dissoc inh	SMILES
-1.4%	11	-1%	-16%	CC(=O)N1c2ccccc2C2(C)C(C1(C)C)C2(Cl)Cl (stereo not given)
0.2%	-12	-4%	-4%	CCN(CC)S(=O)(=O)c1ccc(N2CCOCC2)c(NC(=O)CNCCc2ccccc2)c1
-2.0%	x	x	-14%	Cc1cccn2c(=O)nc(SCC(=O)NCc3ccc(F)cc3)nc12
-0.6%	x	x	-9%	COc1ccc([C@@H]2CC=C(C(=O)O)[C@H](c3ccc(Cl)cc3)N2S(=O)(=O)c2ccc(C)cc2)cc1OC
2.3%	-10	13%	-2%	O=C(NCc1ccc(F)cc1)c1ccc(N2CCc3ccccc32)c([N+](=O)[O-])c1
x	4	-7%	x	CCCCn1c(=O)c2c(c3ccccc31)OCC(=O)N2
-1.9%	x	-1%	-1%	O=C(NC1CCN(S(=O)(=O)c2ccccc2F)CC1)c1ccco1
0.5%	-3	26%	-7%	O=C(c1cccc(C(=O)N2CCN(c3ccccc3F)CC2)n1)N1CCN(c2ccccc2F)CC1
0.5%	3	-1%	-1%	S=C(NC1CCCC1)N1CCN(c2ncccn2)CC1
2.7%	x	x	-10%	CCOC(=O)c1c(CC(C)C)csc1NC(=O)COC(=O)c1ccc(O)cc1
2.7%	x	x	19%	O=C(CSc1nnc(-c2ccco2)o1)Nc1c(F)cccc1F
u	x	-1%	u	CCN(CC)C(=O)Cn1c(C)c(/C=C/c2cc[n+](C)cc2)c2ccccc21
-2.4%	1	1%	1%	N#CCC(=N)N1CCN(c2ccc(Cl)cc2)CC1
u	9	-13%	u	COCCNC(=S)NCCCNc1nc2cc3c(cc2cc1C#N)OCO3
-0.8%	10	-1%	4%	CCOc1ccc2nc(SCC(=O)N3CCN(C(=O)c4ccco4)CC3)sc2c1

Remaining list, next part
Rango-impB inh	GLA inh pH 4.5	miR-21 FLuc	Rango dissoc inh	SMILES
-1.4%	x	2%	u	Cc1ccccc1N(CC(=O)NC1CCCCC1)C(=O)CCCC(=O)Nc1ccccn1
4.0%	x	0%	15%	CC(=O)NC(Cc1c[nH]c2ccccc12)C(=O)NCCc1ccccn1 (stereo not given)
u	x	x	u	COc1ccc(-c2c(C#CC(C)(C)O)c3ccccc3n2C)cc1
4.8%	-2	u	-2%	Cc1ccccc1CS(=O)(=O)c1nnc([C@H](CC(C)C)NC(=O)OC(C)(C)C)o1
u	x	3%	u	Cn1c(O)c(/C=N/NC(=O)c2cc3ccccc3cc2O)c2ccccc21
0.1%	-12	0%	-17%	COc1ccccc1N(C(=O)c1ccco1)C(C(=O)NC1CCCC1)c1cccnc1 (stereo not given)
1.3%	3	-7%	5%	O=C(COC(=O)C1=COCCO1)NC1CCCCCCC1
1.5%	-10	-38%	6%	CCN(C(=O)[C@@H]1CCCN1C(=O)c1cccs1)c1nc2cc(Cl)ccc2s1
-1.3%	0	-2%	0%	COc1ccc(NC(=S)NC2CC3CCC(C2)N3Cc2ccco2)cc1 (stereo not given)
u	-2	-3%	u	Cc1ccc(-c2nc3sc(C#N)c(N)n3c(=O)c2C#N)cc1
-5.0%	5	0%	4%	C=CCN(CC(=O)NC1CCS(=O)(=O)C1)S(=O)(=O)c1ccccc1C(F)(F)F (stereo not given)
-3.7%	x	-2%	-3%	COc1ccc(C(=O)NCCCNC(=O)c2ccccn2)cc1
-4.7%	5	1%	-21%	O=C(NC1CC1)C1CCN(C2CCN(C(=O)c3ccc4cccc(F)c4n3)CC2)CC1
-0.6%	-4	-21%	-7%	Cc1ccc(-c2csc(N(Cc3ccco3)C(=O)c3cccs3)n2)cc1
x	-1&-6	1%	x	Clc1ccc(C2[C@H]3CN(Cc4ccc(-c5ccccc5)cc4)[C@H](c4ccccc4)C34CC2(c2cccnc2)C4)cn1 (stereo not given in full)

Next section:
Rango-impB inh	GLA inh pH 4.5	miR-21 FLuc	Rango dissoc inh	SMILES
u	-11	-2%	u	CCOC(=O)C1=C(C)NC2=C(C(=O)CC(C)(C)C2)C1c1coc2ccccc2c1=O (stereo not given)
-3.1%	-1	-3%	-11%	CCc1c(C)sc(NC(NC(C)=O)(C(=O)OC)C(F)(F)F)c1C#N (stereo not given)
-1.0%	x	x	30%	CC(C)(C)OC(=O)N(CCc1ccccc1)Cc1ccccc1OCc1cccc(NC(=O)C2CCC2)c1
1.6%	x	1%	5%	COc1ccc(NC2CCCN(C(=O)c3ccncc3)C2)cc1 (stereo not given)
5.3%	-12	-6%	1%	Cc1ccc(/C=C/C(=O)OCC(=O)NCCN2C(=O)CSC2=O)o1
-1.0%	3	-4%	-8%	O=C(O)c1nn(-c2ccccc2)ccc1=O
4.8%	x	u	-11%	CN1CCC(NCCC(c2ccc(F)cc2)c2ccc(Cl)cc2)CC1 (stereo not given)

Pulled one by one from the list above:
Rango-impB inh	GLA inh pH 4.5	miR-21 FLuc	Rango dissoc inh	SMILES
4.8%	x	u	-11%	CN1CCC(NCCC(c2ccc(F)cc2)c2ccc(Cl)cc2)CC1 (stereo not given)
1.6%	x	1%	5%	COc1ccc(NC2CCCN(C(=O)c3ccncc3)C2)cc1 (stereo not given)
